# CapD inh = inhibitors of Bacillus anthracis CapD enzyme. purified CapD enzyme, fluorescence intensity read-out; active compounds read low; some hits fall short of the stated cut. z-score (concentration not given with the values). actives 0.23% (n = 140,000). AID 492967;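 active = z-score under -4 in either of two replicates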;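 note: stock transfer was 100 nL into about 40 µL; score is relative to mean and spread of the plate; one replicate is shown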
# AID504770 = growth inhibitors of E. coli YBA685 in a screen for V. cholerae RctB (chromosome II replication) inhibitors; E. coli YBA685 rctB-dependent plasmid, OD600 growth, 3 h; active compounds read low; z-score (test concentration not listed); actives 0.27% (n = 130,000); AID 504770;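 active = z-score under -2 on both plates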;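 note: wells of about 30 µL received 100 nL stock; score is relative to mean and SD of the test wells; the first replicate is given; strong numbers were not always called active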
# An asterisk follows results filed as active; nt = no result given.
# Results follow in this order: CapD inh	AID504770
O=C(CC1Sc2ccccc2NC1=O)Nc1ccc(N2CCOCC2)cc1 (stereo not drawn)
 : 0.56	-0.15
CC1CCCN(C(=O)C2CCCN(S(=O)(=O)c3cccc4nsnc34)C2)C1 (stereo not drawn)
 : -0.56	-0.25
O=C(Nc1ccc(Cl)cc1)c1ccsn1
 : -1.3	0.75
O=C(CSc1ccccn1)c1c[nH]c2ccccc12
 : nt	-1.1
CCOC(=O)c1cnc(SCc2ccc(Cl)cc2)nc1C(F)(F)F
 : 0.015	-0.35
Cc1nc(N2CC(C)OC(C)C2)c2c3c(sc2n1)CCC3 (stereo not drawn)
 : 0.015	-0.05
CCOC(=O)c1c(NC(=O)C(C)Sc2nnc(CNC(=O)c3c(F)cccc3Cl)n2C)sc2c1CCC2 (stereo not drawn)
 : -0.76	nt
CSCCC(NC(=O)c1ccc(C(F)(F)F)cc1)C(=O)N/N=C/c1cccc(Oc2ccc(Cl)cc2)c1 (stereo not drawn)
 : 0.17	nt
Cc1onc(-c2ccccc2)c1C(=O)N1CCN(S(=O)(=O)c2ccccc2)CC1
 : 0.29	0.85
CCOc1ccc2nc(Nc3nc(O)cc(=O)[nH]3)nc(C)c2c1
 : -0.025	1
COc1ccc(S(=O)(=O)N(CCc2ccccc2)CC(=O)Nc2cccc(Cl)c2)cc1OC
 : -0.45	0.8
O=C(Nc1ccccc1)Nc1ccccc1C(=O)N1CCOCC1
 : 0.2	1
CN(C)/C(=N\S(=O)(=O)c1ccc(F)cc1)c1ccccc1
 : 44	0.5
Cc1ccc(/C=C2/Sc3ccccc3N(CC(=O)NCCCN3CCN(C)CC3)C2=O)cc1
 : -1.1	-0.25
Cc1ccc(-c2csc(NC(=O)C(C)C)n2)cc1
 : -0.44	-0.1
CC(C)(C)C(=O)OCCn1c(=O)c2cc3c(=O)n(CCOC(=O)C(C)(C)C)c(=O)c3cc2c1=O
 : 0.12	0.55
CCn1cc(SCC(=O)N2N=C(c3cccs3)CC2c2cccc(OC)c2OC)c2ccccc21 (stereo not drawn)
 : 0.91	nt
COc1ccc(CNC(=O)C(C)Sc2nc3ccccc3n2C)cc1 (stereo not drawn)
 : nt	0.05
CCCCCCN1CC(O)=C(c2nc3ccccc3[nH]2)C1=N
 : -1.1	0.55
Nc1cc(=O)n(Cc2ccccc2)c(=O)n1-c1ccccc1
 : -1	0.1

# Next part (four carried over from the part before).
# Results follow in this order: CapD inh	AID504770
CCn1cc(SCC(=O)N2N=C(c3cccs3)CC2c2cccc(OC)c2OC)c2ccccc21 (stereo not drawn)
 : 0.91	nt
COc1ccc(CNC(=O)C(C)Sc2nc3ccccc3n2C)cc1 (stereo not drawn)
 : nt	0.05
CCCCCCN1CC(O)=C(c2nc3ccccc3[nH]2)C1=N
 : -1.1	0.55
Nc1cc(=O)n(Cc2ccccc2)c(=O)n1-c1ccccc1
 : -1	0.1
Cc1ccc(C(=O)NS(=O)(=O)c2ccccc2)cc1
 : nt	-1.2
COc1cccc(CNC(=O)COC(=O)C2CCN(S(=O)(=O)c3ccc(C)cc3)CC2)c1
 : nt	1.4
Cc1cc(C)nc(SCc2ccc(C(=O)NN)cc2)n1
 : nt	-0.05
CC(NC(=O)C1CCN(C(=O)c2cc3sccc3n2C)CC1)C12CC3CC(CC(C3)C1)C2 (stereo not drawn)
 : -0.025	-1.1
COc1ccc(OCC(=O)N2CC(C)CC(C)C2)cc1 (stereo not drawn)
 : nt	-0.35
CS(=O)(=O)c1ccc(Cn2cc(-c3nc4ccccc4o3)cn2)cc1
 : -0.38	nt
CCOC(=O)c1c(C)[nH]c(C(=O)OCC(N)=O)c1C
 : nt	-0.7
Cc1ccc(NC(=O)CC2C=CCC2)cc1 (stereo not drawn)
 : nt	0.25
CC(=O)NC(CC(=O)O)c1ccccc1 (stereo not drawn)
 : -0.14	-0.45
O=C(O)CC1(CC(=O)Nc2ccc(N3CCOCC3)c(Cl)c2)CCCCC1
 : 0.02	0.2
CN1CCC(N(C2CC2)S(=O)(=O)c2ccc(NC(=O)c3ccccc3Cl)cc2)CC1
 : -0.27	nt
N=C(N)SCc1cc2ccccc2o1
 : 0.43	nt
CN1C2=NCCN2C(=O)c2ccccc21
 : 5.4	-0.35
COc1ccc(C(=O)N/N=C/c2ccc(N(CCC#N)CCC#N)cc2)cc1OC
 : 13	nt
Brc1ccc2[nH]cc(/C=N/N3CCCCC3)c2c1
 : nt	-0.2
Cc1nc(-c2cc(C#N)c(Sc3cccc(C(F)(F)F)c3)nc2C)cs1
 : 2.4	0.4
N#CC1=C(N)Oc2c(c(=O)oc3ccccc23)C1CCc1ccccc1 (stereo not drawn)
 : 0.42	1.9
CC(=O)Nc1ccc(NC2OC(=O)c3ccccc32)cc1 (stereo not drawn)
 : nt	1.2
Cc1cc[n+](C2C(c3ccc(Br)cc3)C(C#N)=C([S-])NC2(O)C2CC2)cc1 (stereo not drawn)
 : 6.1	nt
O=C(Cn1ncc(Cl)c(Cl)c1=O)N1CCCCCC1
 : nt	0.25

# The listing continues:
# Results follow in this order: CapD inh	AID504770
N#Cc1ccc(NC(=O)c2ccc(Br)cc2)cc1
 : -0.41	-1.1
CCN(Cc1ccccc1)C(=O)c1cc(-c2ccc(C)c(C)c2)n[nH]1
 : -0.23	0
C=CCn1c(SCC(=O)Nc2ccc3[nH]c(=O)[nH]c3c2)nc2ccccc2c1=O
 : nt	-0.8
Cc1ccc(C2=Nn3c(nnc3-c3ccc(C(F)(F)F)cc3)SC2)cc1
 : -0.17	nt
C=CCOC(=O)c1sc(N2C(=O)c3oc4ccc(F)cc4c(=O)c3C2c2ccc(O)cc2)nc1C (stereo not drawn)
 : 1.2	-0.5
CCn1cc(/C=C(\NC(=O)c2ccccc2)C(=O)NCc2ccco2)c2ccccc21
 : -2.3	0.3
CCOC(=O)c1cc(-c2ccc(Cl)cc2)[nH]c1Nc1ccc(Cl)cc1
 : 56	nt
CCN1C2OC(C3OC4C(O3)N(CC)S(=O)(=O)N4CC)OC2N(CC)S1(=O)=O (stereo not drawn)
 : nt	-0.55
CCOC(=O)N1CCN(c2cc(NCCC(=O)O)c3c4c(onc24)-c2ccccc2C3=O)CC1
 : 0.71	nt
OCCCc1nc2ccccc2n1C1CCCCC1
 : 0.29	-1.1
CC(=O)Nc1cc(-c2sc3ccc(Cl)cc3c2C)[nH]n1
 : 0.45	0.85
C(=C\c1ccccc1)/C=N/n1cnnc1
 : -1.2	-2.4
O=C(NCCO)c1ccc(CSc2nc3ccccc3[nH]2)cc1
 : -0.04	-0.05
CCC(=O)n1cc(/C=c2/sc3nc4cc(C)c(C)cc4n3c2=O)c(-c2ccc(F)cc2)n1
 : -0.36	nt
CS(=O)(=O)c1ccc(S(=O)(=O)NCCOc2ccccc2)cc1
 : 0.23	nt
Cc1ccc(C(=O)Nc2nnc(CCS(=O)(=O)c3ccc(Br)cc3)s2)cc1[N+](=O)[O-]
 : -0.45	nt
O=C(Nc1ccccc1)N(C1=NCCC1)c1ccccc1
 : nt	1.8
O=C1O[C@@H]2C[C@H]3C[C@@H]2[C@@H]1[C@H]3C(=O)N1CCC(C(O)(c2ccccc2)c2ccccc2)CC1
 : 0.58	0.55
Cc1ccc(-n2nnnc2SCC(=O)Nc2cccc3nsnc23)c(C)c1
 : nt	1.6
COc1ccc(N=C2SC(C(=O)Nc3ccc(OC)cc3)CC(=O)N2Cc2ccc3c(c2)OCO3)cc1 (stereo not drawn)
 : -0.01	nt

# Entries from the list above that contain a COOH group, in the order listed:
# Results follow in this order: CapD inh	AID504770
CC(=O)NC(CC(=O)O)c1ccccc1 (stereo not drawn)
 : -0.14	-0.45
O=C(O)CC1(CC(=O)Nc2ccc(N3CCOCC3)c(Cl)c2)CCCCC1
 : 0.02	0.2
CCOC(=O)N1CCN(c2cc(NCCC(=O)O)c3c4c(onc24)-c2ccccc2C3=O)CC1
 : 0.71	nt

# The listing continues:
# Results follow in this order: CapD inh	AID504770
O=C1CSC(=Nc2ccccc2F)N1c1ccccc1F
 : -0.72	nt
Cc1cc2nc3ccc(=[N+](C)C)cc-3sc2cc1N
 : 1.1	13
Cc1ccc(N=C2N=C(N)c3ccccc32)c(C)c1
 : nt	-1.9
CCCN1C(=O)SC(CC(=O)Nc2ccc(C(=O)OCC)cc2)C1=O (stereo not drawn)
 : 2.6	-0.25
O=C(O)c1cn[nH]c1-c1ccc(F)cc1
 : -0.72	1.1
COCC(Cc1ccccc1)NS(=O)(=O)c1cc(F)ccc1C (stereo not drawn)
 : -0.34	nt
CCCCCn1c(Br)nc2c1c(=O)n(CC(N)=O)c(=O)n2C
 : nt	0.05
CCCn1c2c(c(=N)c3c1CCC3)CCC2
 : 0.12	-2.5
Cc1ccc(S(=O)(=O)Cc2csc(N3CCOCC3)n2)cc1
 : 0.13	-1
COc1ccc(-c2c(C(F)(F)F)nn(C)c2NC(C)=O)cc1
 : 0.21	-0.7
C=CCNc1nc(Cl)nc(Nc2ccc(OC)cc2OC)n1
 : 0.05	nt
CC(=Nc1ccc(Cl)cc1)c1cccs1
 : nt	-0.1
CN=Cc1cc(-c2ccccc2)n(C)c1S
 : -1.2	1.4
CCOC(=O)C1C(=O)NC(SCC(=O)Nc2nccs2)=C(C#N)C1c1ccccc1OCC (stereo not drawn)
 : 2.4	nt
COc1cc(C(=O)Nc2c3c(nn2-c2ccc(C)cc2C)CS(=O)(=O)C3)cc(OC)c1OC
 : -0.095	nt
COc1cc(CN2CCN(CCOC(=O)NCc3cccc([N+](=O)[O-])c3)CC2)cc2c1OCO2
 : -1.4	nt
Cc1ccc(C(=O)OCC(=O)N2CCOCC2)c(C)c1
 : 0.17	0.6
CCN(CC)CC(O)COc1cc(C(F)(F)F)ccn1 (stereo not drawn)
 : 34	-0.6
CCOc1ccc(-n2c(SC(C)C(=O)NCc3ccco3)nnc2-c2ccccc2Cl)cc1 (stereo not drawn)
 : nt	-0.55
COc1ccccc1C(C)NC(=O)c1ccc(=O)[nH]c1 (stereo not drawn)
 : nt	0.15

# Continuation.
# Results follow in this order: CapD inh	AID504770
CCOc1ccc2c(c1)C(=C1SC(C(=O)OC)=C(C(=O)OC)S1)C(=S)C(C)(C)N2C(=O)/C=C/c1ccc(OC)cc1
 : -0.4	nt
COC(=O)C1=NN(c2ccccc2)C(=O)/C1=C\N(C)C
 : -2	-0.9
CCc1oc2ccccc2c1/C=C/C(=O)O
 : nt	-0.35
CC(=O)N1CCOc2cc(S(=O)(=O)N3CCCC3)c(Cl)cc21
 : 0.075	-0.4
COc1ccc(/C(C)=N/O)cc1CSc1ccccn1
 : 0.09	0.3
CCOCCOC(=O)C1=C(C)NC2=C(C(=O)CC(c3cccs3)C2)C1c1ccc(OC)c(O)c1 (stereo not drawn)
 : 3.8	nt
NC(=O)C1CCN(C(=S)NCCc2ccccc2)CC1
 : nt	-0.95
COC(=O)CCC(=O)Oc1ccc2ccccc2c1
 : 0.82	-0.45
CCc1cc(Br)ccc1S(=O)(=O)NCC(C)(C)CN(C)C
 : 0.42	nt
O=C1c2ccccc2SCC1(CO)CO
 : -0.18	0.25
CCCN(CCC)C(=O)CC(c1ccccc1)c1cc(Br)ccc1O (stereo not drawn)
 : -0.15	0.05
CN(C)c1nnnn1-c1ccccc1Oc1ncc(C(F)(F)F)cc1Cl
 : -0.14	nt
COc1ccc(NC(=O)c2ccc3c(=O)n(-c4ccc(OC)c(OC)c4)c(=S)[nH]c3c2)c(OC)c1
 : -0.15	nt
CC(C)NC(=O)c1ccc(S(=O)(=O)N(C)C)cc1
 : 0.045	-1.3
O=C1C2ON(c3ccc(Cl)cc3)C(c3ccc(C(F)(F)F)cc3)C2C(=O)N1Cc1ccccc1 (stereo not drawn)
 : 0.04	nt
Cn1c(-c2ccc(N)cc2)nc2ccccc21
 : 98	-0.25
O=C(CSc1nc2c(c(C(F)(F)F)n1)CCCCC2)NCCC1=CCCCC1
 : 0.22	-0.85
CC(=O)NC1C(=O)N(C)N=C1c1ccccc1 (stereo not drawn)
 : -0.41	0.5
CN1CCN(NC(=O)CN(C)S(=O)(=O)c2cc(Cl)ccc2Cl)CC1
 : 0.16	-0.95
CC(=O)OC1CC2C(CCCC2(C)C)C2C(=O)C(O)C(C(C)C)C(=O)C12 (stereo not drawn)
 : -0.41	1.6

# Continuation.
# Results follow in this order: CapD inh	AID504770
CCCC(=O)Nc1cc(C(=O)NC2CCCCC2C)ccc1S(=O)(=O)c1ccc(C)cc1 (stereo not drawn)
 : 0.17	0.05
CCCNC(=S)N1CCC(C(=O)c2ccc(C)cc2)CC1
 : 0.68	0.25
O=C(c1cccc(S(=O)(=O)N2CCOCC2)c1)N1N=C(c2ccccc2)CC1(O)C(F)(F)F (stereo not drawn)
 : nt	-1
Cc1ccc(CC(C#N)Sc2nnc(C(C)N3CCCCC3)n2-c2ccc(F)cc2)cc1 (stereo not drawn)
 : nt	-0.2
NC(=O)C1(N2CCCCC2)CCN(C(=O)CCNC(=O)Cn2cnc3sc4c(c3c2=O)CCCC4)CC1
 : 0.31	nt
COc1cccc(NC(=O)Nc2ccc3nc4n(c(=O)c3c2)CCC4)c1
 : 0.43	-1.1
O=C(NCC(=O)N1CCN(c2ccccc2F)CC1)c1ccco1
 : nt	-0.2
Cc1ccc2c(c1)-c1onc(C(=O)NCCN3CCc4ccccc4C3)c1CO2
 : 2	0.95
CCOC(=O)c1[nH]c2ccccc2c1NC(=O)Cc1ccc(OCC)cc1
 : 23	-0.5
Cc1cc(-n2c(N)c(C(N)=O)sc2=S)ccc1Cl
 : -0.99	nt
O=C(NNC(=S)NC1CC2C=CC1C2)c1cccnc1 (stereo not drawn)
 : -1.1	nt
N#Cc1cn(-c2ccccc2)nc1-c1cccnc1
 : nt	-0.35
CCc1ccnc(NC(=O)c2cccs2)c1
 : -0.53	-0.35
CN(C)C(=S)SCc1ccccc1C(=O)Oc1c(Cl)cccc1Cl
 : 0.12	nt
Clc1ccc(-c2nc(NCc3ccco3)c3ccccc3n2)c(Cl)c1
 : 1	-0.35
O=C(Nc1ccccc1)N1CCn2cccc2C1Cc1ccccc1 (stereo not drawn)
 : 1	-1

# Bioassay records (PubChem)
